# From PubChem BioAssay
# gsp agonist: agonists of gsp mutant (McCune-Albright syndrome); gsp mutant cells, cAMP HTRF, 30 min; control for the full effect not named in the record; Potency, µM (titrated, usually from 76.9 µM), inactives show at the highest dose activation (cAMP increase), hits mostly activators; 0.13% of 340,000 active; active = well fitted activation curve with a large enough effect; inconclusive = small, poorly fitted or top-dose-only effect, or another doubt; inactive = no such curve, though single readings can be large or run the other way; cell line not stated here;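 also: phosphodiesterase inhibitor Ro 20-1724 added with compounds to block cAMP breakdown; potency is read from the fitted curve at half-maximal effect; nearly all actives have a fitted effect of over 60% in size; about a fifth of the inactives were tested at one dose only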
#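 Cells in DMEM/10% FBS with G418 were pretreated with compounds in DMSO plus […] (300 uM stock) for 30 min at 37C. cAMP was measured by HTRF (cAMP-d2 plus anti-cAMP antibody-K) after 30 min at room temperature.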
# D2 PAM: human D2 receptor positive allosteric modulation | P14416 | DiscoveRx D2 beta-arrestin cells, luminescence, 90 min; 100% = 57 uM dopamine signal | potentiation, % (concentration not given with the values) | 0.23% of 360,000 active | AID 624464; active = potentiation of 50% or more; inconclusive = 30% to 50%; inactive = 30% or less;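 also: compound concentration not given in the record; tested on top of an EC20 dose of dopamine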
# Target sequence (P14416 whole entry, looked up): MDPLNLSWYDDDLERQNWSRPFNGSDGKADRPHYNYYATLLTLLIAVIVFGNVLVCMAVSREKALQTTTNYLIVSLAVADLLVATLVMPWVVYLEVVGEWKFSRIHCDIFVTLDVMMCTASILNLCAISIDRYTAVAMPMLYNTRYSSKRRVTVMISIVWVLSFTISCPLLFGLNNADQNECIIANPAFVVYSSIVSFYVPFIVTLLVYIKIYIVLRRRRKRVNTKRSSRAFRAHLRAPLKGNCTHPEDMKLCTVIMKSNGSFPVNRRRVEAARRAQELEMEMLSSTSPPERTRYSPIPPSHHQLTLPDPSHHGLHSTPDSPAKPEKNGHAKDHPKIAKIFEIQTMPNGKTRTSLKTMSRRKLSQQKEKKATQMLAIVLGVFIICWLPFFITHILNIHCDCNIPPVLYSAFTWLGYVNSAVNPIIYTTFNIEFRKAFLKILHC
#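 D2 cells co-treated with compound plus 50 nM dopamine (EC20) for 90 min at 37 deg C to detect potentiation. Beta-arrestin recruitment was read as enzyme-fragment luminescence after 1 h at ambient temperature. Full response was set by 57 uM dopamine.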
# gsp antag: gsp mutant antagonism. gsp-mutant cells, cAMP HTRF, 30 min; control for the full effect not named in the record. Potency, µM (highest dose often 76.9 µM), for inactives: at the highest dose activity change, negative = inhibition, most hits filed as inhibitors. 0.4% of 340,000 active; active = falling curve of any shape with a large fitted effect; inconclusive = falling curve, mostly with a smaller effect; inactive = flat or rising curve; cell line not stated here;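 also: intracellular cAMP measured with PDE inhibitor Ro 20-1724 present during compound exposure; potency is read from the fitted curve at half-maximal effect; % is scaled to controls: 0 for no effect and ±100 for the full control effect; nearly all actives have a fitted effect of over 65% in size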
#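 Measurement of cellular cAMP by homogeneous time-resolved fluorescence following a 30 min compound exposure at 37C. The PDE inhibitor […] was present throughout; the assay buffer was DPBS with 0.05% BSA and 0.005% Tween 20.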
# Six1-Eya2 inh: Six1/Eya2 interaction inhibition. AID 651725. AlphaScreen GST-Six1/His-Eya2 binding, biochemical; stronger effect = lower value; control for the full effect not named in the record. 0.56% of 360,000 active. Q15475+O00167. activity change, % (no concentration beside the values); in the data active = activity change below about -65%; inconclusive = about -30% to -65%; inactive = above about -30%; also: % is scaled to controls: 0 for no effect and ±100 for the full control effect; compound concentration not given in the record
#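 GST-Six1 + His-Eya2 (5X stock: 250/500 nM); Tris pH 8.0, 300 mM NaCl, 0.05% BSA, 0.02% Tween 20; GSH donor/Ni acceptor beads; 1 h 37 °C dark; AlphaScreen readout.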
# CtBP-E1A blk: blocks the CtBP interaction with E1A | AlphaScreen GST-E1A/His-CtBP binding, 1536-well; stronger effect = lower value; control for the full effect not named in the record | activity change, % (no concentration beside the values) | 0.49% of 340,000 active; in the data active means activity change below about -65%; inconclusive means about -30% to -65%; inactive means above about -30%; also: % is scaled to controls: 0 for no effect and ±100 for the full control effect; compound concentration not given in the record
#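 Homogeneous bead-based format: GST-tagged E1A captured on glutathione donor beads, His-tagged CtBP on nickel acceptor beads; compounds precede bead addition by 2 h at 37 °C.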
# D2 agonist: activates the human D2 dopamine receptor. P14416. DiscoveRx PathHunter D2 beta-arrestin, luminescence, 90 min; 100% = 57 uM dopamine signal. AID 624465. activation, % (no concentration beside the values). 0.084% of 360,000 active; in the data active = activation above about 40%; inconclusive = about 15% to 40%; inactive = below about 15%; also: compound concentration not given in the record; the text of the record calls up to 30% inactive
#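 Agonist mode: compounds alone added to overnight-plated D2 PathHunter cells for 90 min at 37 C, with 57 uM final dopamine (EC100) defining full response. Beta-arrestin recruitment detected by chemiluminescent reagent, read after 1 h at ambient temperature.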
# An asterisk follows results filed as active; ? = inconclusive; . = not tested or not shown; [ ] = remark or other dose. An unsorted share of the library. Share with any hit: about 1.4%.
D2 agonist	Six1-Eya2 inh	gsp antag	CtBP-E1A blk	D2 PAM	gsp agonist	SMILES
-9.6	7	.	-5	2	-4%	COc1ccc([C@@H]2C[C@H]3[C@@H](CN2S(=O)(=O)c2ccccc2)C(=O)C[C@@H](c2ccc(C)cc2)N3S(=O)(=O)c2ccc(C)cc2)cc1
-2.8	-2	-3%	4	-2	?	N#Cc1ccc(CSc2nnc(-c3cccnc3)n2-c2ccccc2)cc1
-0.9	12	-3%	9	-5	-5%[15.4 µM]	O=c1[nH]c(/C=C/c2cccc(Br)c2)nc2ccccc12
14	-3	7%	0	-5	-50%[inhibitor]	CC(C)(C)C(O)C(Cc1ccccc1Cl)n1cncn1 (stereo not drawn)
-1.6	61	-1%	70	-2	-37%[inhibitor]	Cc1ccccc1OCC(=O)O/N=C(\N)Cc1ccc(Cl)cc1
-0.3	3	3%	7	5	-23%	O=C(Nc1ccc(-c2nnc(-c3ccco3)o2)cc1)C(c1ccccc1)c1ccccc1
-5.3	-6	5%	2	-7	16%	O=C(Nc1cccc(C(=O)NC2CCCCC2)c1)c1ccccc1
3.6	-3	4%	4	-2	-18%[15.4 µM]	C/C(=N\NC(=O)c1c(Br)c(C)nn1C)c1ccc(NC(=O)c2ccoc2C)cc1
-2.8	-22	13%	11	-4	2%[15.4 µM]	COc1cc(NC(=O)c2ccc(F)cc2)c(OC)cc1NC(=O)CN1CCCCC1
6.2	-3	-12%	11	14	-16%[15.4 µM]	CC(=O)Oc1ccc(OC(C)=O)c(SCCCCCCl)c1
-0.4	5	-9%	6	-10	-6%	CCOc1ccccc1N(CC(=O)NC1CCCC1)C(=O)CCC(=O)Nc1cc(C)on1
2.0	-8	-16%	.	-2	1%	COc1ccc(OCc2cc(C(=O)N(C)Cc3cc(C4CC4)n[nH]3)no2)c(Cl)c1
0.0	5	13%	4	-6	0%	COC(=O)c1sc(NC(=O)C(C)C)c(C(=O)OC)c1C
3.4	-6	3%	-1	-4	-26%	O=C(CCC(=O)Nc1ccc(F)cc1)N/N=C/c1c[nH]c2ccccc12
8.2	-3	-12%	-19	-8	-4%	COc1cc(CCC(=O)OCC(=O)Nc2cc(S(=O)(=O)N3CCOCC3)ccc2Cl)cc(OC)c1OC
-1.8	-6	0%	-3	0	-4%	COCCN(Cc1cc2cc(C)c(C)cc2nc1Cl)C(=O)Nc1ccccc1
4.6	5	3%	.	0	0%	CCN(CC)C(=O)c1ccc2c(c1)nnn2C
1.2	4	8%	-3	-4	14%	O=C(Oc1ccccc1)N(c1ccccc1)c1ccccc1
-3.2	-19	-17%	-11	3	28%	Cc1cccc(Oc2cc(NC(=O)c3ccccc3)cc([N+](=O)[O-])c2)c1
-0.7	0	-1%	1	-1	11%	COc1ccccc1NC(=O)c1sc2ncn(CC(=O)N3CCC(C)CC3)c(=O)c2c1C
-1.5	4	-5%	-5	-4	17%	O=C(Nc1ccc([N+](=O)[O-])cc1)c1cccc(S(=O)(=O)Nc2ccccn2)c1
2.4	-6	37%[activator]	.	-2	-46%[inhibitor]	Cc1ccnc(NC(c2ccccc2O)c2oc(CO)cc(=O)c2O)c1 (stereo not drawn)
0.1	-12	-22%	-22	-32	3%	CC(=O)c1c(C)[nH]c(C(=O)Nc2ccc(C)c(S(=O)(=O)Nc3ccc(C)cc3C)c2)c1C
0.6	0	0%	9	-5	-2%[15.4 µM]	Cc1cccc(NC(=O)C(=O)NCc2ccc3c(c2)OCO3)c1C
-0.7	3	11%	3	-18	?	Cc1ccc2oc(=O)cc(CN3CCOCC3)c2c1
-6.2	-10	-6%	0	-4	-1%[15.4 µM]	COC(=O)c1ccc(CNS(=O)(=O)c2ccc3ccccc3c2)cc1
-0.9	-1	10%	-10	-7	-62%	O=C(CCS(=O)(=O)c1ccccc1)Nc1ccccc1F
-0.3	6	-9%	-10	3	11%	CC1(C)CC(=O)c2sc(N3CCCCC3)nc2C1
-4.3	1	.	4	-6	.	O=C(Nc1ccccc1)Nc1nnc([C@H]2C[C@H](O)[C@@H](CO)O2)s1
2.1	2	?	5	22	13%	COc1ccc(S(=O)(=O)O/N=C2\CCCc3ccccc32)cc1
0.2	-8	-16%	-4	.	.	CCN(C[C@H]1N[C@@](CC)(C(=O)OC)[C@H]2C(=O)N(Cc3ccccc3)C(=O)[C@@H]12)S(=O)(=O)c1ccc(C)cc1
-5.7	-7	-9%	-3	-2	-10%	CCOc1ccc(S(=O)(=O)N2CCCCC2)cc1NC(=O)CN1CCCC1c1cccs1 (stereo not drawn)
-4.7	-3	11%	8	-10	-4%	COc1ccc(COC(=O)C2=C(C)NC(=O)NC2c2ccc(O)cc2)cc1 (stereo not drawn)
2.0	-3	1%	-8	-9	6%	CCN(C(=O)CSc1nc2nc(C)cc(C)n2n1)c1cccc(C)c1
-3.4	-9	.	2	-8	.	COc1ccc(C2=Nc3ccccc3NC(=O)C2N(CCc2ccccc2)C(=O)c2cccs2)cc1 (stereo not drawn)
-0.8	-3	13%	-18	0	6%	c1ccc2nc3c(nc2c1)[nH]c1ccccc13
1.9	-3	-18%	1	-2	-87%[inhibitor]	Cc1ccc(S(=O)(=O)NCCSc2nnnn2-c2cc(C)ccc2C)cc1
-2.2	-1	1%	1	-6	15%	CCOCCOC(=O)C1=C(C)N(C)C(=O)NC1c1ccccc1Cl (stereo not drawn)
-3.6	13	-6%	1	-6	21%[15.4 µM]	COc1ccc(CNC(=O)C(c2ccncc2)N(C(=O)Cc2cccs2)c2ccccc2)cc1 (stereo not drawn)
1.4	21	-4%	8	-7	15%	CN(Cc1ccc(C(F)(F)F)cc1)C(=O)c1ccc(Oc2ccccc2)cc1
2.8	-9	?	-1	-5	28%	Cn1c(SCC(=O)c2ccc(-c3ccccc3)cc2)nnc1-c1ccco1
9.0	-10	-23%	-6	-10	-49%[inhibitor]	Cc1ccc(NC(=S)N2CCC(C(=O)c3ccc(F)cc3)CC2)cc1C
-7.4	4	-4%	-21	-13	-72%[inhibitor]	Cc1c(NS(=O)(=O)c2cccc(C(=O)Nc3cccc(F)c3)c2)c(=O)n(-c2ccccc2)n1C
-2.7	-20	?	1	-1	15%[15.4 µM]	O=C(COc1cccc2ccccc12)Nc1cc(Cl)ccc1C(=O)O
-1.8	-10	-5%	-16	-9	?	Cc1[nH]c2ccccc2c1/C=C(\C#N)C(=O)NC(C)c1ccccc1 (stereo not drawn)
-2.1	5	2%	-2	-5	26%	O=C(CCCCCn1c(=O)[nH]c2ccsc2c1=O)NCc1cccs1
5.6	-11	-9%	-12	11	-17%	COc1ccc(C2NC(=S)NC3=C2CCc2cc(OC)ccc23)cc1 (stereo not drawn)
-1.8	0	-15%	0	-13	0%[15.4 µM]	O=C(NN=C1CCCC1)c1cccc(Br)c1
-0.8	9	-6%	9	-5	-3%[15.4 µM]	CCOc1cccc(C(=O)NC2=NCCS2)c1
-1.7	3	12%	-1	-6	-8%	Cn1nnnc1SCC(=O)Nc1ccccn1

# Sorted by the number under gsp agonist (rising): some entries from above
SMILES,D2 agonist,Six1-Eya2 inh,gsp antag,CtBP-E1A blk,D2 PAM,gsp agonist
O=C(CCS(=O)(=O)c1ccccc1)Nc1ccccc1F,-0.9,-1,10%,-10,-7,-62%
Cn1nnnc1SCC(=O)Nc1ccccn1,-1.7,3,12%,-1,-6,-8%
CCOCCOC(=O)C1=C(C)N(C)C(=O)NC1c1ccccc1Cl (stereo not drawn),-2.2,-1,1%,1,-6,15%

# (listing goes on)
D2 agonist	Six1-Eya2 inh	gsp antag	CtBP-E1A blk	D2 PAM	gsp agonist	SMILES
-3.5	-16	?	-3	-12	15%[15.4 µM]	CC(=O)N1N=C(c2ccc(C)cc2)CC1c1ccc2c(c1)OCO2 (stereo not drawn)
-4.8	2	-9%	3	-10	.	Cc1c(OCC(=O)N2CCC(C(N)=O)CC2)ccc2c1oc(=O)c1ccccc12
-6.7	1	-4%	-24	-16	-17%	Cn1c(=O)c2c(nc(CN3CCN(Cc4ccccc4)CC3)n2Cc2ccc(Cl)cc2)n(C)c1=O
-3.2	0	0%	.	-6	-28%	Nn1c(Cc2ccccc2F)n[nH]c1=S
-4.2	-87*	19%	-93*	4	11%	COc1cccc(/C=N/Nc2nc3ccccc3n3cnnc23)c1O
-5.8	-3	-4%	12	-20	-13%	CSc1ccccc1OCc1cc(C(=O)N(C)C(C)c2ccccn2)no1 (stereo not drawn)
-3.5	-17	-8%	-14	-36	-4%	Cc1ccccc1C(=O)Nc1ccnn1C1CCN(Cc2c(C)n(C)c3ccccc23)CC1
-3.5	2	?	1	-13	-14%[15.4 µM]	CC(C)N(C(=O)Cn1cc(S(=O)(=O)CC(=O)Nc2ccccc2)c2ccccc21)C(C)C
-6.4	-7	-8%	-21	-8	0%	CCCCCCCCCCOC(=O)Cn1c(COc2ccccc2OC)[n+](C)c2ccccc21
-5.9	-2	12%	-1	-2	46%[15.4 µM]	N#Cc1c2n(c3c(N)ncnc13)CCCCC2
0.8	3	-21%	1	0	7%[15.4 µM]	Cc1ccc(OCCSc2nc3ccccc3n2CC(=O)O)cc1

# Arranged by count of non-hydrogen atoms (lowest first): some entries from above.
D2 agonist	Six1-Eya2 inh	gsp antag	CtBP-E1A blk	D2 PAM	gsp agonist	SMILES
-3.2	0	0%	.	-6	-28%	Nn1c(Cc2ccccc2F)n[nH]c1=S
-1.8	0	-15%	0	-13	0%[15.4 µM]	O=C(NN=C1CCCC1)c1cccc(Br)c1
-1.7	3	12%	-1	-6	-8%	Cn1nnnc1SCC(=O)Nc1ccccn1
0.8	3	-21%	1	0	7%[15.4 µM]	Cc1ccc(OCCSc2nc3ccccc3n2CC(=O)O)cc1
-2.7	-20	?	1	-1	15%[15.4 µM]	O=C(COc1cccc2ccccc12)Nc1cc(Cl)ccc1C(=O)O
-5.8	-3	-4%	12	-20	-13%	CSc1ccccc1OCc1cc(C(=O)N(C)C(C)c2ccccn2)no1 (stereo not drawn)
-4.8	2	-9%	3	-10	.	Cc1c(OCC(=O)N2CCC(C(N)=O)CC2)ccc2c1oc(=O)c1ccccc12
-3.5	2	?	1	-13	-14%[15.4 µM]	CC(C)N(C(=O)Cn1cc(S(=O)(=O)CC(=O)Nc2ccccc2)c2ccccc21)C(C)C
-3.5	-17	-8%	-14	-36	-4%	Cc1ccccc1C(=O)Nc1ccnn1C1CCN(Cc2c(C)n(C)c3ccccc23)CC1
-6.4	-7	-8%	-21	-8	0%	CCCCCCCCCCOC(=O)Cn1c(COc2ccccc2OC)[n+](C)c2ccccc21
-6.7	1	-4%	-24	-16	-17%	Cn1c(=O)c2c(nc(CN3CCN(Cc4ccccc4)CC3)n2Cc2ccc(Cl)cc2)n(C)c1=O
